Compound activity (PubChem BioAssay)
CDC25B-CDK2 inh = human CDC25B-CDK2/CyclinA binding inhibition; P30305+P24941; HTRF CDC25B-CDK2/CyclinA binding, anti-His/anti-Flag; stronger effect = higher value; z-score (test concentration not listed); actives 0.72% (n = 94,000); AID 1259370;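 note: score is relative to mean and SD of negative controls; strong numbers were not always called active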
HIV TAR-Tat = HIV-1 TAR-Tat binding disruption | AID 1259389 | actives 0.6% (n = 100,000) | HIV-1 TAR RNA, Tat peptide displacement FRET; stronger effect = higher value | z-score (no concentration beside the values);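 note: score is relative to mean and SD of negative controls; some compounds called inactive have numbers as strong as hits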
Numbers without * were called inactive; . = not tested or not shown.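 Rule for the calls: active = z-score from 3 up in half or more of its runs; inactive = the rest.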 No enrichment for hits. About 0.97% of those tested had a hit in this group.

SMILES	CDC25B-CDK2 inh	HIV TAR-Tat
C=C(C)Cn1c(COc2ccc(C)cc2)nc2ccccc21	-1.6	1.9
Cn1c(=O)c2c(nc(N3CCc4ccccc4C3)n2C)n(C)c1=O	-0.54	-1.5
O=c1[nH]c2ccccc2c(=O)n1CCc1nc(-c2ccc(F)cc2)no1	-1.8	-0.63
COc1nc2c(c(-c3ccccc3)c1C#N)Cc1ccccc1-2	-1.4	.
CC1Cc2cc(S(=O)(=O)N3CCN(C4CCCC4)CC3)ccc2N1C(=O)C1CCC1 (stereo not drawn)	.	-0.49
Cc1cc(C)c2oc(C(=O)N(Cc3ccc(C(C)C)cc3)C3CCS(=O)(=O)C3)cc(=O)c2c1 (stereo not drawn)	-0.97	0.25
CC(C)Oc1cccc(C(=O)NC(=S)Nc2ccc(O)c(-c3nc4ccccc4s3)c2)c1	-2.3	.
CCOC(=O)c1sc(NC(=O)CC)nc1C	-1.6	0.24
O=C(COc1ccc(Cl)cc1)Oc1ccc2ccccc2c1	-1	0.94
CCN1CCN(C(=O)Cn2cnc3sc(C)c(S(=O)(=O)N4CCC(C)CC4)c3c2=O)CC1	0.11	0.01
COc1ccc(OCCSc2nc3ccccc3c(=O)[nH]2)cc1	-0.6	-1.1
CSc1nc(N)c2c3c(sc2n1)COC(C(C)C)C3 (stereo not drawn)	-0.4	.
O=c1c(S(=O)(=O)c2ccccc2)c[nH]c2ccccc12	-1.4	.
Cc1c(S(=O)(=O)N2CCCC2c2ccc(F)cc2)cnn1-c1ccccc1 (stereo not drawn)	-1.4	.
CCC1Sc2ccc(S(=O)(=O)Nc3cc(OC)cc(OC)c3)cc2NC1=O (stereo not drawn)	.	0.28

The list goes on; the last 5 above are carried over.
SMILES	CDC25B-CDK2 inh	HIV TAR-Tat
COc1ccc(OCCSc2nc3ccccc3c(=O)[nH]2)cc1	-0.6	-1.1
CSc1nc(N)c2c3c(sc2n1)COC(C(C)C)C3 (stereo not drawn)	-0.4	.
O=c1c(S(=O)(=O)c2ccccc2)c[nH]c2ccccc12	-1.4	.
Cc1c(S(=O)(=O)N2CCCC2c2ccc(F)cc2)cnn1-c1ccccc1 (stereo not drawn)	-1.4	.
CCC1Sc2ccc(S(=O)(=O)Nc3cc(OC)cc(OC)c3)cc2NC1=O (stereo not drawn)	.	0.28
CCc1ccc(-c2cc(C)no2)cc1S(=O)(=O)N(C)Cc1ccco1	.	0.28
CC(C)OCCCNC(=O)CCC(=O)N1CC2CCCN2c2ccccc21 (stereo not drawn)	.	-1.3
CC(C)c1ccc(OCc2nc(-c3ccccc3)no2)cc1	-0.84	3.2
CCCOC(=O)C1=C(C)NC2=C(C(=O)CC(C)(C)C2)C1c1ccccn1 (stereo not drawn)	0	1.7
CC(C)c1ccc(NC(=O)CSc2nnc(CSc3cccs3)n2C)cc1	-2.1	.
CCC(C(=O)N1CCOCC1)n1cnc2onc(C)c2c1=O (stereo not drawn)	.	1
CCOC(=O)c1cc(-c2ccc(S(=O)(=O)Nc3cc(F)ccc3F)s2)on1	.	-0.19
CC1CCN(Cc2cc(COC(C)C)c3cccnc3c2O)CC1	-3.5	2.9
O=C(NCCc1ccco1)c1cc2c(Cl)ccc3c2n1CCO3	.	-0.08
CC1CCc2c(sc3c2CSC(C(=O)Nc2ccccc2F)=C3)C1 (stereo not drawn)	.	-2.4
CN(C)CCn1c2c(c(SCC(=O)Nc3ccccc3Cl)nc1=O)CCC2	.	0.93
Cc1ccc(CN2CCc3nc(Nc4ccc5c(c4)OCO5)ncc3C2)s1	.	0.94
CCCNC(=O)C1CCN(c2nnc(N3CCCCC3=O)s2)CC1	.	1
Cc1cc(C)nc(SN=C2C=C(Cl)C(=O)C(Cl)=C2)n1	15*	.
NC(=O)c1ccc(NC(=O)Cc2csc(NC(=O)NC3CCCC3)n2)cc1	.	1.8

7 structures from above, sorted by number of heavy atoms, low to high.
SMILES	CDC25B-CDK2 inh	HIV TAR-Tat
Cc1cc(C)nc(SN=C2C=C(Cl)C(=O)C(Cl)=C2)n1	15*	.
CC(C)c1ccc(OCc2nc(-c3ccccc3)no2)cc1	-0.84	3.2
O=C(NCCc1ccco1)c1cc2c(Cl)ccc3c2n1CCO3	.	-0.08
CC1CCN(Cc2cc(COC(C)C)c3cccnc3c2O)CC1	-3.5	2.9
CCc1ccc(-c2cc(C)no2)cc1S(=O)(=O)N(C)Cc1ccco1	.	0.28
CCCOC(=O)C1=C(C)NC2=C(C(=O)CC(C)(C)C2)C1c1ccccn1 (stereo not drawn)	0	1.7
Cc1ccc(CN2CCc3nc(Nc4ccc5c(c4)OCO5)ncc3C2)s1	.	0.94

The list continues.
SMILES	CDC25B-CDK2 inh	HIV TAR-Tat
COc1ccc(NC(=O)NCc2noc3ccccc23)cc1Cl	.	1.3
O=C1c2cnccc2CN1Cc1ccccc1Cl	.	1
Cc1noc(/C=C/N(C)C)c1S(=O)(=O)N(C)Cc1ccc2c(c1)OCO2	.	0.93
COc1ccc(C(Nc2cc(C)ccn2)c2ccc3cccnc3c2O)cc1OC (stereo not drawn)	1.2	0.55
CCOC(=O)c1cn(Cc2cc(C)ccc2C)c2nc(C)ccc2c1=O	.	1.8
CCNc1c(-c2nc(-c3ccc(F)cc3)n[nH]2)nnn1Cc1ccccc1F	-0.52	0.79
CC1=C(c2ccc(Cl)cc2)S(=O)(=O)NC1=NCCCN1CC(C)CC(C)C1 (stereo not drawn)	-0.88	0.06
CN(Cc1ccccc1)C(=O)NC1COc2ccccc2C1 (stereo not drawn)	.	0.67
CCCn1c(C)ccc(-c2noc(CCCC(=O)NC)n2)c1=O	1.6	1.1
COc1cccc(N2C(=O)C3ON(c4ccc(Cl)cc4)C(c4cccs4)C3C2=O)c1 (stereo not drawn)	-0.76	-0.93
Cc1ccc(CNC(=O)c2sc3ncccc3c2-n2cccc2)o1	.	0.52
NC(=O)c1c(NC(=O)CCCSc2ccc(Cl)cc2)sc2c1CCC2	.	0.03
CCOC(=O)CCCCCCCCCCCCC1C=CCC1 (stereo not drawn)	.	1.2
CCOC(=O)CSc1ncn(-c2nc(NC)nc(OC)n2)n1	-0.58	2.3
CCOC(=O)c1c(C)oc2nc(C)nc(NCCCN(C)c3ccccc3)c12	.	-0.86
COc1ccc(C(C#N)(CCC#N)CCC#N)cc1	-1.5	.
CN(C)CCNc1oc(-c2ccc(COc3ccc(Cl)cc3)o2)nc1C#N	-0.88	-1.3
Nc1c(-c2nc(-c3ccc(F)cc3)no2)nnn1-c1cccc(F)c1	.	1.3
Cc1cc(NS(=O)(=O)c2cc(-c3noc(C(=O)N4CCCC4)n3)ccc2C)no1	.	1.6
CCn1c(=O)c2cc(C(=O)N(CCCOC(C)C)Cc3ccco3)sc2c2ccccc21	-0.83	3.2
CCN1CCN(c2c(C(=O)c3ccccc3)cnc3cc4c(cc23)OCCO4)CC1	2.7	-0.48
CC1CCN(S(=O)(=O)N2CCCC(C(=O)O)C2)CC1 (stereo not drawn)	.	1.9
Cn1c(C2=C(O)CN(c3ccccc3Br)C2=N)nc2ccccc21	0.94	0.36
Cc1nn2c(=O)cc(CSc3nc4ccc(NC(=O)CC(C)C)cc4s3)nc2s1	.	-0.41
Cc1nccn1CCc1n[nH]c(=S)n1C	-2.2	.
CCS(=O)(=O)NCc1cccn1Cc1cccc(F)c1	.	0.85
COc1nnc(-c2ccc(C)c(S(N)(=O)=O)c2)c2ccccc12	0.49	-0.53
Cn1c(=O)[nH]c(=O)c2c1nc1[nH]c(-c3ccc(Br)cc3)cn12	-1.3	.
Cn1c(-c2ccccn2)n[nH]c1=S	-0.74	.
Cc1cc(C)nc(N2CCC(NC3CC(=O)N(c4ccc(F)c(Cl)c4)C3=O)CC2)n1 (stereo not drawn)	-1.2	-0.21
c1ccc(N2CCN(c3ccccc3)C2=C2N(c3ccccc3)CCN2c2ccccc2)cc1	-2	.
COc1ccc(C2Oc3ccccc3C3CC(c4ccccc4O)=NN32)cc1 (stereo not drawn)	-0.88	-1.3
CC(=O)N1N=C(c2ccc(F)cc2)OC12CCCCC2	0.34	.
CC(C)Cn1cc(NC(=O)N(Cc2ccco2)C2CCCCC2)c2ccccc2c1=O	.	0.72
O=C(CSc1cn(CC(=O)N2CCCC2)c2ccccc12)Nc1ccc(Cl)cc1	.	0.05
COc1cc(/C=C/c2ccc(O)cc2)cc(OC)c1	.	0.43
CCCCC(=O)Nc1ccc2nc(SCC(=O)N3CCc4ccccc43)sc2c1	0.31	0.96
CCOc1cc(C2CC(=O)Nc3nc(SCc4ccc(F)cc4)[nH]c(=O)c32)ccc1O (stereo not drawn)	-0.96	1.9
O=C(O)c1cc(-c2ccccc2)c(N2CCCC2)s1	-0.68	-2.2
Fc1ccccc1CN1CCC(CNc2nn3nnnc3c3ccccc23)CC1	-2.7	1.5
Nc1c(-c2nc(-c3ccc(Cl)cc3)no2)nnn1-c1cccc(F)c1	.	0.85
CCN(Cc1cc(=O)n2nc(C3CC3)sc2n1)c1ccc(Cl)cc1	.	0.44
Cc1cc(OCC(O)CN2CCCCC2C)ccc1Cl (stereo not drawn)	-0.08	.
O=C(Nc1ccc2c(c1)OCCO2)N1CCN2CCCCC2C1 (stereo not drawn)	.	0.94
CCCOC(=O)C(CC)Oc1ccc2c(=O)c(Oc3ccccc3Cl)coc2c1 (stereo not drawn)	0.38	0.6
COC(=O)c1cnn2c1NCN(CCc1ccccc1)C2	-1.8	1.4
CC1Cc2ccccc2N1C(=O)CCS(=O)(=O)c1cccc2nsnc12 (stereo not drawn)	0.01	0.5
CN(C(=O)c1ccc(-c2ccc(S(=O)(=O)N3CCCC3)cc2)cc1)C1CCCCC1	.	0.62
CC1=C(c2ccc(F)cc2)S(=O)(=O)N=C1Nc1cccc(F)c1	.	0.53
Fc1ccc(Cn2[nH]nnc2=S)cc1	-0.69	.
COc1ccc(C(=O)OCc2cc(=O)n3c(C)csc3n2)cc1	.	0.76
COc1ccc(C2=C(C)C(Nc3ccc(C)cn3)=NS2(=O)=O)cc1	-4.6	-1.5
Cc1nnc(NC(=O)CSc2nnc(Cn3c(=O)sc4ccccc43)n2C)s1	-0.42	1.2
COc1ccc(-c2cc(C)no2)cc1S(=O)(=O)NCc1ccc2c(c1)OCO2	.	-1
O=C(O)CSCC(=O)Nc1nc(SCc2ccc(Cl)cc2)n[nH]1	7*	.
Cc1ccc(CSc2ncnc3ccccc23)cc1	-1	-0.5
O=C1COc2cc(-c3c(Nc4cccc(Br)c4)c(=O)c3=O)ccc2N1	.	0.12
CCOC(=O)C1CCCN(c2nnc(-n3cccc3)s2)C1 (stereo not drawn)	-2.3	2.6
Cc1cc(C)cc(NC(=O)NCC2CCN(C3CCCC3)C2)c1 (stereo not drawn)	-1.4	1.9
CN(c1ccccc1)S(=O)(=O)c1cc2c3c(c1)CCC(=O)N3CCC2	.	1.5

Other compounds
SMILES	CDC25B-CDK2 inh	HIV TAR-Tat
N#Cc1c(C(F)(F)F)cc(-c2cccnc2)[nH]c1=O	-0.65	.
COc1ccc(N2C(=O)C3CCCN3C2c2ccc(Br)cc2)cc1 (stereo not drawn)	1.1	0.96
COc1ccc(NS(=O)(=O)c2ccc3c(c2)n(C)c(=O)n3C)cc1	-1.3	-0.42
O=C(NCCN1CCCCC1)c1[nH]nc2c1COc1ccccc1-2	.	0.95
Cc1ccc2nc(-c3ccc(C(F)(F)F)cc3)oc2c1	-0.98	.
Cc1ccc(-n2ncc3c(NCCOCCO)ncnc32)cc1C	.	1.1
CCCCn1cc(NC(=O)C2=CC(c3ccco3)=NS(=O)(=O)N2C)cn1	-0.73	1.3
NC(=O)c1nc(-c2ccc(Cl)cc2)nc2c1[nH]c(=O)n2CC1CCCO1 (stereo not drawn)	.	0.9
CC(=O)Nc1ccc(S(N)(=O)=O)cc1Cl	-2.3	.
Cc1ccc(C)c(NS(=O)(=O)c2ccc3[nH]c(=O)[nH]c3c2)c1	-2.9	2.8
Cc1c(C(=O)C(=O)NC2CCCC2)c2ccccc2n1C	-2.8	.
COc1cccc(CSc2nc3ccccc3c3nc(C)nn23)c1	.	0.62
Cn1c(=O)c(=O)n(CC(=O)NCC2CCCO2)c2ccccc21 (stereo not drawn)	.	0.9
CCOc1cc(-c2ccc(F)cc2)nc2ccc(N)cc12	-1.8	0.64
O=C1CC(c2ccccc2)CC2=C1C(c1c[nH]c3ccccc13)N(C(=O)C1CC1)c1ccccc1N2 (stereo not drawn)	-1.1	.
CCCNC(=O)Cn1cc(S(=O)(=O)N2CCCC2)c(S(=O)(=O)N2CCCC2)c1	.	2.2
Cc1c(C(=O)Nc2ccc3c(c2)OCO3)oc2ccc3c(c12)C(=O)CC(C)(C)O3	.	3.7
CCN1C(=O)c2cccc3c(S(=O)(=O)Nc4nc5ccccc5s4)ccc1c23	-1.1	0.16
CCN1CCN(C(=O)c2cc3c(s2)-c2ccc(Cl)cc2S(=O)(=O)C3)CC1	-1.3	0.89
CCCCCCSc1cc(C)nc2ncnn12	0.7	0.71
CCOC(=O)C1CCN(c2c(N3CCN(c4ccc(F)cc4)CC3)c(=O)c2=O)CC1	-2.3	0.44
CCOC(=O)c1cccc(C(=O)Oc2ccccc2)n1	8.5	1.8
CCc1cc(-c2n[nH]c(C)c2-c2nc3ccccc3n2C)c(O)cc1O	0.22	.
CC1CCCCN1C(=O)CN1C(=O)N(c2cc(F)ccc2F)S(=O)(=O)c2ccccc21 (stereo not drawn)	.	1.2
COc1ccc(-c2nc(=S)c3c([nH]2)Oc2ccccc2C3)cc1	-2.8	-2.3
Cc1c2occ(-c3ccc4c(c3)OCO4)c2cc2c3c(c(=O)oc12)CCCC3	-1.7	.
O=C(O)C1=CCN(Cc2ccc(F)cc2)CC1	-1.1	0.66
CCc1nc2c(-c3ccccc3)noc2c(=O)[nH]1	-1.1	0.48
Cc1cc(-c2ccc(S(=O)(=O)NCc3ccc(Cl)cc3)s2)on1	.	-2.6
CCCc1cc(=O)[nH]c(Nc2ccc(Cl)cc2)n1	-0.02	1.9

Another view of 2 compounds above:
O=C(O)C1=CCN(Cc2ccc(F)cc2)CC1
  CDC25B-CDK2 inh = -1.1	HIV TAR-Tat = 0.66

CCc1nc2c(-c3ccccc3)noc2c(=O)[nH]1
  CDC25B-CDK2 inh = -1.1	HIV TAR-Tat = 0.48
